ClpP mod: qHTS Assay for Activators of ClpP. Potency, µM (series often up to 57.5 µM), inactives show top-dose activity change, negative = active. ATP-dependent Clp protease proteolytic subunit (Bacillus subtilis (strain 168)), P80244. AID 651965, 2013. purified B. subtilis ClpP, FRET peptide cleavage, 20 min. hit rate 1.9% among 340,000; active = well fitted falling curve with a large enough effect; inconclusive = small, poorly fitted or top-dose-only effect; inactive = no such curve, though single readings can be large or run the other way; further: potency means the concentration at half of the fitted maximal effect; the source files actives as falling curves though it sought activators and does not explain the sign; nearly all actives have a fitted effect of over 65% in size; many hits overshoot -100%
Target sequence (P80244 whole entry, looked up): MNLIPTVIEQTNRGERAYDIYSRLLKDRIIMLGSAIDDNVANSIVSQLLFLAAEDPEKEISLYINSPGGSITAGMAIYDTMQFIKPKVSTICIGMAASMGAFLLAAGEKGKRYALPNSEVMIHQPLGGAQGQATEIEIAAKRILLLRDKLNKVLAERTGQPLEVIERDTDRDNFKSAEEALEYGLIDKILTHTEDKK
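ClpP 10 microg/mL final, pH 8 Tris/KCl buffer with BSA, glycerol, Tween-20; compound pinned in; FRET-FV substrate; RT 20 min; Ex320/Em430; ΔFRET vs ADEP 5.8 microM, DMSO, no enzyme.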
PINK1 modulator: A Quantitative High throughput Screen to Identify Chemical Modulators of PINK1 Expression. hit rate 0.2% among 410,000. AID 624263, 2012. Potency, µM (top dose mostly 76.6 µM), for inactives: at the top dose activation (PINK1 increase), actives largely listed as activators. PINK1 immunofluorescence, high-content cytometry, 24 h; active = well fitted activation curve with a large enough effect; inconclusive = small, poorly fitted or top-dose-only effect; inactive = flat fitted curve, though single readings scatter; cell line not stated here;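 further: potency means the concentration at half of the fitted maximal effect; % of control where 0% means no effect; nearly all actives have a fitted effect of over 65% in size; a mitochondrial uncoupler was the plate control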
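PINK1 protein, normally rapidly degraded, was detected by immunofluorescence after 24 hour compound treatment of a stable cell line. Titration data (5 concentrations) came from laser-scanning cytometry, with CCCP-treated wells as controls.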
TRPML1 inh: qHTS for Inhibitors of the Human Mucolipin Transient Receptor Potential 1 (TRPML1); TRPML1-inducible cells, Ca2+ dye fluorescence, FDSS; active compounds read low; inhibition of EC80 agonist-evoked calcium signal; activity change, negative = inhibition, % (test concentration not listed); hit rate 0.02% among 390,000; AID 624415, 2012; in the data active means activity change below about -50%; inconclusive means about -30% to -50%; inactive means above about -30%;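 further: stimulus is agonist 54-4 at its EC80 concentration; on the % scale 0 is the no-effect control and ±100 the full control effect; compound concentration not given in the record; the text of the record puts the active cut at -80%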
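Calcium fluorescence in TRPML1-DL cells induced overnight with Tet: a 110 s read after compound pin addition, then a 110 s antagonist read after challenge with 54-4 at 4 uM final (EC80).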
TRPML1 agonist: qHTS for Agonists of the Human Mucolipin Transient Receptor Potential 1 (TRPML1); Mucolipin-1 (Homo sapiens), Q9GZU1; TRPML1-expressing cells, Ca2+ dye fluorescence, FDSS; host cell line not named in the record; reference of the full effect not given here; activation, % (concentration not given with the values); hit rate 0.12% among 410,000; in the data active = activation above about 50%; inconclusive = about 30% to 50%; inactive = below about 30%; further: 0% is about no effect; the text of the record puts the active cut at 80%
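Calcium fluorescence on an FDSS kinetic reader gave the read-out. Tet-induced TRPML1-DL cells were plated overnight, dye-loaded (Ca8 with quencher, 45-90 min, room temperature, dark), then read 110 s after compound addition, and again 110 s after 4uM final 54-4 (EC80).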
Menin-MLL FL inh: qHTS Assay for Inhibitors Targeting the Menin-MLL Interaction in MLL Related Leukemias: Competition With Fluorescein Labeled MLL-derived Peptide. Fluorescence polarization, fluorescein-MLL peptide displacement from menin. 290,000 tested, under 10 active. FP activity change, % at 61.4 µM. AID 1766, 2009; inconclusive = falling polarisation curve, or a change in total fluorescence; inactive = total fluorescence flat and polarisation flat or rising; no compound was filed as active; the % refers to the polarisation; negative = inhibition;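 further: % of control where 0% means no effect; inhibitors lower the polarisation; unlabelled MLL peptide was the positive control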
Sfp inh: qHTS Assay for Inhibitors of Bacillus subtilis Sfp phosphopantetheinyl transferase (PPTase) | 4'-phosphopantetheinyl transferase ffp (Bacillus subtilis), Q9F4F7 | Biochemical Sfp PPTase activity, qHTS | Potency, µM, without a hit: max response, negative = inhibition, most hits filed as inhibitors | hit rate 3.5% among 310,000 | AID 1490, 2009; active means well fitted inhibition curve with a large enough effect; inconclusive means small, poorly fitted or top-dose-only effect, or another doubt; inactive means no such curve, though single readings can be large or run the other way;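 further: the enzyme is Sfp with the accession as filed and its product quenches rhodamine fluorescence; potency means the concentration at half of the fitted maximal effect; 0% = enzyme reaction without inhibitor and -100% = no enzyme wells; top concentration of the series not given in the record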
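After 15 min at room temperature with compound, 15 nM Sfp received 5 uM rhodamine-CoA plus 12.5 uM BHQ-2-ybbR (50 mM Hepes pH 7.6, 10 mM MgCl2). Rate came from the fluorescence difference over 30 min, ex 525/em 598 nm.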
TRPV1 potentiator: HTS Assay for Compounds that Act as Potentiators of the Vanilloid Receptor 1. Transient receptor potential cation channel subfamily V member 1 (Homo sapiens), Q8NER1. TRPV1-expressing cells, Fluo-8 calcium influx, capsaicin EC20 potentiation; host cell line not named in the record; control for the full effect not named in the record. potentiation, % at 8.33 µM. hit rate 0.02% among 320,000. AID 540277, 2011; active means potentiation above 80%; inconclusive means 30% to 80%; inactive means below 30%; further: 0% is about no effect
Target sequence (Q8NER1 whole entry, looked up): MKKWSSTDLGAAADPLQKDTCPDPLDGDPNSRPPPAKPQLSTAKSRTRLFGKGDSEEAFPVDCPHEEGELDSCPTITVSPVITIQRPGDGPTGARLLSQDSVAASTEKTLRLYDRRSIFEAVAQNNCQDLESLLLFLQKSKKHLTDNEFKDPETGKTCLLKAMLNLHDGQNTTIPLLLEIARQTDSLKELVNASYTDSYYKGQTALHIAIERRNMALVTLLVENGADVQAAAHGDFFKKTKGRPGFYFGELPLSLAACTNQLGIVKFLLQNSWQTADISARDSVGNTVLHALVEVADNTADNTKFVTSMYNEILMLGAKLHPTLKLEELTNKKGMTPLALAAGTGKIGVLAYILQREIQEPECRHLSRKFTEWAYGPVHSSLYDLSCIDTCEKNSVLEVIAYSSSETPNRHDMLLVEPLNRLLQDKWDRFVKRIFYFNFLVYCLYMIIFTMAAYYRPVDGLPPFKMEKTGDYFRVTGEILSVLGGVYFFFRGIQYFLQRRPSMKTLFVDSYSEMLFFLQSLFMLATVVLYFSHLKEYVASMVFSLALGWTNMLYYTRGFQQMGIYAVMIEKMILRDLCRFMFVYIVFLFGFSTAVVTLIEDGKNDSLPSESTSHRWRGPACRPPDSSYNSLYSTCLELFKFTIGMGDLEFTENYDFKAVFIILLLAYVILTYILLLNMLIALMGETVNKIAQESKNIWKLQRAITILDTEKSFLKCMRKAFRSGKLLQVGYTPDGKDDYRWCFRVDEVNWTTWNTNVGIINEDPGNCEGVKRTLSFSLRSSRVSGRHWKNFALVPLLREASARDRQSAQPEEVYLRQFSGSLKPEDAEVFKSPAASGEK
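Fluo-8 calcium influx in TRPV1-expressing cells, kinetic read (ex 480/em 520 nm). Compound added and read 3 min for agonist activity, followed by capsaicin at EC20 final and 2 min further read for enhancement.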
Starred values were filed as active, the others as inactive.

What do the screens show for `O=C(NCCc1ccc(Cl)cc1)c1cccn1-c1nnc(N2CCCCC2)s1`?
ClpP mod: -11%; PINK1 modulator: 0.0%; TRPML1 inh: -16; TRPML1 agonist: 0.7

Results for Nc1ccccc1C(=O)NCc1ccc(Cl)cc1 ?
ClpP mod: 7.1µM*; PINK1 modulator: -0.8%; TRPML1 inh: -4; TRPML1 agonist: 0.0; Menin-MLL FL inh: -6.3; Sfp inh: 5%; TRPV1 potentiator: -10

Results for Cc1ccccc1NC(=O)CC(O)(C(F)(F)F)C(F)(F)F ?
ClpP mod: 1.6%; PINK1 modulator: 1.4%; TRPML1 inh: 7; TRPML1 agonist: -1.5; Menin-MLL FL inh: 0.7; Sfp inh: 12%; TRPV1 potentiator: 0

What do the screens show for `Cc1ccc(N=Cc2sccc2C)cc1C`?
ClpP mod: 1.2%; PINK1 modulator: 0.7%; TRPML1 inh: 0; TRPML1 agonist: 0.3; Menin-MLL FL inh: 1.1; Sfp inh: 21%; TRPV1 potentiator: -3

Results for CC1CC=C(c2ccccc2)C(=S)N1 (configuration not stated) ?
PINK1 modulator: 1.6%; TRPML1 inh: 1; TRPML1 agonist: 0.2; Menin-MLL FL inh: -0.3; Sfp inh: inconclusive; TRPV1 potentiator: -7

How did CC1(C(=O)NCc2cccc(C(F)(F)F)c2)CCN1Cc1ccc2ccccc2c1 (configuration not stated) do in these assays?
ClpP mod: -4.4%; PINK1 modulator: inconclusive; TRPML1 agonist: 2.8

What do the screens show for `CS(=O)(=O)N1CCN(/[N+]([O-])=N/Oc2ccc([N+](=O)[O-])cc2[N+](=O)[O-])CC1`?
PINK1 modulator: 3.2%; TRPML1 inh: 45; TRPML1 agonist: 1.9

What do the screens show for `CN(C(=O)C(Cl)Cl)C1CC2C=CC1C2` (configuration not stated)?
PINK1 modulator: -0.7%; TRPML1 inh: 13; TRPML1 agonist: -0.1; Menin-MLL FL inh: 1.5; Sfp inh: 14%; TRPV1 potentiator: -9

What do the screens show for `Fc1ccccc1OCCCCn1cncn1`?
ClpP mod: 4.0%; PINK1 modulator: 2.2%; TRPML1 inh: 5; TRPML1 agonist: -0.4; Menin-MLL FL inh: 5.9; Sfp inh: 16%; TRPV1 potentiator: 15

Results for CCN(CC)CC(=O)N1c2ccccc2CCc2ccc(NC(=O)c3cc(OC)c(OC)c(OC)c3)cc21 ?
PINK1 modulator: 5.1%; TRPML1 inh: 29; TRPML1 agonist: 0.4; Menin-MLL FL inh: 5.8; Sfp inh: -4%; TRPV1 potentiator: inconclusive

Overlap with the part before: 2 compounds; new compounds follow.
What do the screens show for `Fc1ccccc1OCCCCn1cncn1`?
ClpP mod: 4.0%; PINK1 modulator: 2.2%; TRPML1 inh: 5; TRPML1 agonist: -0.4; Menin-MLL FL inh: 5.9; Sfp inh: 16%; TRPV1 potentiator: 15

Results for CCN(CC)CC(=O)N1c2ccccc2CCc2ccc(NC(=O)c3cc(OC)c(OC)c(OC)c3)cc21 ?
PINK1 modulator: 5.1%; TRPML1 inh: 29; TRPML1 agonist: 0.4; Menin-MLL FL inh: 5.8; Sfp inh: -4%; TRPV1 potentiator: inconclusive

What do the screens show for `COc1cccc2cc(-c3nc(Nc4cccc(C)c4C)sc3C)c(=O)oc12`?
ClpP mod: 1.4%; PINK1 modulator: 0.6%; TRPML1 inh: -26; TRPML1 agonist: -0.8

How did O=C(CSc1nnc(-c2cccc(Cl)c2)o1)Nc1ccc2c(c1)OCCO2 do in these assays?
ClpP mod: 1.2%; PINK1 modulator: 2.0%; TRPML1 inh: 8; TRPML1 agonist: 1.0; Menin-MLL FL inh: 0.3; Sfp inh: -15%; TRPV1 potentiator: 2

What do the screens show for `COCCn1c(SCC(=O)NC2CCCC2)nc2c(c1=O)SCC2`?
ClpP mod: -4.0%; PINK1 modulator: -0.9%; TRPML1 inh: -11; TRPML1 agonist: -0.2; Sfp inh: 16%; TRPV1 potentiator: 5

How did COc1ccc(OC)c(NC(=O)CN2C(=O)CC(C)Sc3ccccc32)c1 (configuration not stated) do in these assays?
ClpP mod: -0.2%; PINK1 modulator: -0.3%; TRPML1 inh: -2; TRPML1 agonist: 5.3

Results for CC(C)(C)c1ccc(S(=O)(=O)N2CCN(C3CCCC3)CC2)cc1 ?
PINK1 modulator: 4.5%; TRPML1 inh: 2; TRPML1 agonist: -0.3; Menin-MLL FL inh: 0.8; Sfp inh: 21%; TRPV1 potentiator: 8

How did COc1cc(C)ccc1S(=O)(=O)n1nc(C)cc1C do in these assays?
PINK1 modulator: 0.4%; TRPML1 inh: -6; TRPML1 agonist: 0.6; Menin-MLL FL inh: 4.6; Sfp inh: 16%; TRPV1 potentiator: 10

How did CCC(=O)NNC(=O)CCC(=O)Nc1ccccc1 do in these assays?
Menin-MLL FL inh: 6.5; Sfp inh: 14%; TRPV1 potentiator: 3

What do the screens show for `O=C(Nc1cccc(O)c1)c1cccc(C(=O)Nc2cccc(O)c2)c1`?
ClpP mod: 0.5%; PINK1 modulator: 5.0%; TRPML1 inh: -6; TRPML1 agonist: 0.2; Menin-MLL FL inh: -0.1; Sfp inh: 6%; TRPV1 potentiator: 7

How did Cc1ccccc1Cn1cc(NC(=O)c2cc(-c3ccco3)on2)cn1 do in these assays?
ClpP mod: 11%; PINK1 modulator: 5.6%; TRPML1 inh: -22; TRPML1 agonist: 0.3; Menin-MLL FL inh: -0.7; Sfp inh: 2%; TRPV1 potentiator: 2

Results for CCc1nc2ccc(C(=O)NCCN3CCOCC3)cn2c1N(CCC(C)C)CCN(C)C ?
ClpP mod: -3.2%; PINK1 modulator: 1.4%; TRPML1 agonist: -0.3

Results for Cc1ccc(C)c(S(=O)(=O)C(C#N)c2nc3ccccc3nc2N2CCCC2)c1 (configuration not stated) ?
ClpP mod: -1.3%; PINK1 modulator: inconclusive; TRPML1 inh: 15; TRPML1 agonist: 0.3; Menin-MLL FL inh: inconclusive; Sfp inh: 45µM*; TRPV1 potentiator: 7

How did CCOc1ccc(C(=O)C[n+]2cccc3cc(C)ccc32)cc1 do in these assays?
PINK1 modulator: 12%; TRPML1 inh: 2; TRPML1 agonist: 0.3; Menin-MLL FL inh: inconclusive; Sfp inh: 13%; TRPV1 potentiator: -7

How did O=C(Nc1ccc([N+](=O)[O-])cc1)Nc1ccc2[nH]c(=O)[nH]c2c1 do in these assays?
ClpP mod: -5.0%; PINK1 modulator: 0.2%; TRPML1 inh: -2; TRPML1 agonist: 0.3; Menin-MLL FL inh: inconclusive; Sfp inh: -4%; TRPV1 potentiator: 4

How did O=C(CNC(=O)c1ccc(S(=O)(=O)N2CCCC2)cc1)N/N=C/c1ccco1 do in these assays?
ClpP mod: -3.1%; PINK1 modulator: -0.8%; TRPML1 inh: -4; TRPML1 agonist: -0.3; Menin-MLL FL inh: 0.0; Sfp inh: 3%; TRPV1 potentiator: 5

Results for COc1ccc2c(CC(=O)NNC(=O)c3ccc(C)cc3)coc2c1 ?
PINK1 modulator: 17%; TRPML1 inh: 8; TRPML1 agonist: -1.3

Results for COCCn1ccc(O)c(Cc2ccccc2)c1=O ?
ClpP mod: 0.8%; PINK1 modulator: 2.5%; TRPML1 inh: 13; TRPML1 agonist: -0.8; Menin-MLL FL inh: -1.5; Sfp inh: 27%; TRPV1 potentiator: 1

Results for COc1ccc(C(CNC(=O)CCNC(=O)c2ccc(Br)cc2)N2CCOCC2)cc1 (configuration not stated) ?
ClpP mod: inconclusive; PINK1 modulator: -1.7%; TRPML1 inh: 4; TRPML1 agonist: 0.0; TRPV1 potentiator: 8

What do the screens show for `COc1cc(C)c(CN2CCN(CC(=O)Nc3ccccc3C(=O)NC3CC3)CC2)cc1OC`?
ClpP mod: 1.0%; PINK1 modulator: -1.6%; TRPML1 inh: -3; TRPML1 agonist: -0.3; TRPV1 potentiator: -2

What do the screens show for `Cc1cccc(NC(=O)c2oc3ccc(S(=O)(=O)N(C)C4CCCCC4)cc3c2C)c1C`?
ClpP mod: inconclusive; PINK1 modulator: 0.7%; TRPML1 inh: -5; TRPML1 agonist: 15

What do the screens show for `CCOC(=O)N1CCC(NC(=O)C2CCC(CNS(=O)(=O)c3ccc(OC)cc3)CC2)CC1` (configuration not stated)?
ClpP mod: -1.7%; PINK1 modulator: 2.3%; TRPML1 inh: -11; TRPML1 agonist: 1.3; Menin-MLL FL inh: 2.5; Sfp inh: 17%; TRPV1 potentiator: 1

What do the screens show for `N#Cc1ccc(C(=O)CSc2nnc(-c3ccc(C(F)(F)F)cn3)s2)cc1`?
ClpP mod: 0.0%; PINK1 modulator: 0.8%; TRPML1 inh: 13; TRPML1 agonist: -0.4; Menin-MLL FL inh: 16; Sfp inh: 5%; TRPV1 potentiator: -1

How did Cc1noc2ncnc(Oc3cc(Cl)ccc3Cl)c12 do in these assays?
ClpP mod: -2.0%; PINK1 modulator: 0.1%; TRPML1 inh: 24; TRPML1 agonist: 0.5; Menin-MLL FL inh: 1.5; Sfp inh: -1%; TRPV1 potentiator: 13

Results for O=S(=O)(NC1CCCCCCC1)c1ccccc1F ?
PINK1 modulator: 3.0%; TRPML1 inh: 6; TRPML1 agonist: 0.1; Menin-MLL FL inh: 2.1; Sfp inh: 16%; TRPV1 potentiator: -3

What do the screens show for `CCN(CC(=O)Nc1ccccc1C(F)(F)F)C(=O)CCc1ccccc1`?
PINK1 modulator: 0.0%; TRPML1 inh: 4; TRPML1 agonist: -0.5; Sfp inh: -53%; TRPV1 potentiator: 4

Results for Cc1cc(CSCc2ccc(Cl)cc2)no1 ?
ClpP mod: -0.9%; PINK1 modulator: 0.1%; Menin-MLL FL inh: -3.4; Sfp inh: 3%; TRPV1 potentiator: 24

Results for Cc1c(C(=O)NCC2COc3ccccc3O2)oc2ccc(S(=O)(=O)N(C)C3CCCCC3)cc12 (configuration not stated) ?
ClpP mod: -24%; TRPML1 inh: -4; TRPML1 agonist: 0.0; Menin-MLL FL inh: 4.5; Sfp inh: 2%; TRPV1 potentiator: 3
